Source: PubChem BioAssay (ICCB-Longwood Screening Facility, Harvard Medical School)
PV pol inh – inhibitors of poliovirus RNA polymerase binding and polymerization. AID 588519. 150,000 tested, 0.66% active. % elongation, % (compound at 16.7 µg/mL). poliovirus polymerase elongation, fluorescence polarization; active compounds read low. P03300; in the data active = % elongation below about 90%; note: some results filed as inactive read as strong as hits
Target sequence (P03300 1749-2209 limits assumed): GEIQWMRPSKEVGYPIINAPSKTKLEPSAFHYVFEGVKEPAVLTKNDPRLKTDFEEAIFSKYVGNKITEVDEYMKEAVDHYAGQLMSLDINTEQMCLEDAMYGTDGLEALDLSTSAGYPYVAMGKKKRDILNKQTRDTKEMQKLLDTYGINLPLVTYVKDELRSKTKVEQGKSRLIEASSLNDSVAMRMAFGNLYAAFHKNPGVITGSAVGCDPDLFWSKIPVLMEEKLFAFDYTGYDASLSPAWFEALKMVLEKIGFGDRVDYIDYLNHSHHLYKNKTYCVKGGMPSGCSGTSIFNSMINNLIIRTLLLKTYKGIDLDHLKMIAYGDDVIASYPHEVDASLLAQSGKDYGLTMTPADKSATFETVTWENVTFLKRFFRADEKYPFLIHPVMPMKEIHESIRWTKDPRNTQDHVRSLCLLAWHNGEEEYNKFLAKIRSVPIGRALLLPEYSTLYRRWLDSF
Mtb MenB inh – Mtb MenB enzyme inhibition | inhibition, %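 (about 12 µg/mL by stock and volumes)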 | AID 540299 | MenB enzyme assay, absorbance read-out; some hits fall short of the stated cut | P9WNP5 | 100,000 tested, 0.43% active;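 active = mean of two replicates above 30%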;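 note: 0% = no compound and 100% = wells with inactive enzyme; the first replicate is given; strong numbers were not always called active; inactives centre near -10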
Mtb MbtI inh – MbtI salicylate synthase inhibition; P9WFX0; purified MbtI enzyme, fluorescence intensity read-out; inhibition, %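 (about 17 µg/mL by stock and volumes)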; 100,000 tested, 0.89% active; AID 493033;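 active = above 50% in both replicates, above 80% if mildly self-fluorescent; inactive = the rest, strongly fluorescent compounds included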;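 note: 0% = mean of negative and 100% = mean of positive controls; one replicate is shown; some compounds called inactive have numbers as strong as hits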
Target sequence (P9WFX0 whole entry, looked up): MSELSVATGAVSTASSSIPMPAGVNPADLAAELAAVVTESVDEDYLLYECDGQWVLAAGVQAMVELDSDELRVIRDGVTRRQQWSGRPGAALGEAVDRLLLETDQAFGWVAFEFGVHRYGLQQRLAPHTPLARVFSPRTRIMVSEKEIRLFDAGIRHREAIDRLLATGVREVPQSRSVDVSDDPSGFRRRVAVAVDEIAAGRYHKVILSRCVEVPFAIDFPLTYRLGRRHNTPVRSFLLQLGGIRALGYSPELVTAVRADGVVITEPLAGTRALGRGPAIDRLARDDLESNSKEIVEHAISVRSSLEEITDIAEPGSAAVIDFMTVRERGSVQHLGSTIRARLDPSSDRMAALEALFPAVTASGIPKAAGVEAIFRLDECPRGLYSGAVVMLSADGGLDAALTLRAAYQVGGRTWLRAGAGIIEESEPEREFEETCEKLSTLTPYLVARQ
PV pol inh intensity – also measured in PV pol inh; calls as there; % elongation; measured here: total intensity read-out; formula for this scale not given here;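 total fluorescence in place of polarization; lower means less elongation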
The depositor's hits bear a star; i = inactive; x = no result given.

Order of results – PV pol inh	PV pol inh intensity	Mtb MenB inh	Mtb MbtI inh
- Cn1/c(=N\NC(=O)C23CC4CC(CC(C4)C2)C3)sc2ccccc21
    104	101	-21	-2
- S=C(Nc1ccc2nsnc2c1)N1CCCC1
    89*	97*	-4	-12
- C=CCn1c(O)c(C#N)c(C)cc1=O
    103	107	-17	165
- O=C(NCc1cccnc1)C1CCC(c2ccc(Cl)cc2)CC1 (stereo not drawn)
    101	99	0	-6
- CN1C(=O)C2(NC(=O)c3ccccc3N2C)c2ccccc21 (stereo not drawn)
    101	108	-17	5
- Nn1c(CSc2ccccn2)nc2ccccc2c1=O
    103	104	-19	15
- Nc1ccc(Cl)cc1C(O)c1ccccc1 (stereo not drawn)
    99	103	-14	-10
- O=S1(=O)CCC(NC(=S)N2CCCCC2)C1 (stereo not drawn)
    99	103	-2	-6
- COc1ccc(S(=O)(=O)NC(CC(=O)N2CCCCC2)C(C)C)cc1 (stereo not drawn)
    104	106	-7	-10
- CC(=O)N1c2ccc(S(=O)(=O)N3CCCN(Cc4ccc(F)cc4)C3)cc2CC1C (stereo not drawn)
    102	103	-6	-17
- O=C(C1CCCN(CC2CC3C=CC2C3)C1)N1CCC(Cc2ccccc2)CC1 (stereo not drawn)
    99	97	0	-11
- COC(=O)c1ccccc1NC(=O)c1ccccc1Br
    97	96	-4	1
- CCOC(=O)N1CCC(NC(=O)Nc2ccc(F)cc2)CC1
    103	105	-5	-6
- NC(=S)Nc1ccccc1OC(F)(F)F
    106	105	1	10
- O=C(CCN1CCN(c2ccccc2)CC1)N/N=C1/CCCc2ccccc21
    107	108	-9	-11
- CN(C)S(=O)(=O)c1ccc2nnn(OCC(=O)NC34CC5CC(CC(C5)C3)C4)c2c1
    103	104	-8	2
- Cc1ccc(/C=C2/SC(=O)NC2=S)o1
    39	180	-173	61
- CCS(=O)(=O)NCCc1csc2nc(-c3ccccc3)nn12
    98	108	12	2
- COc1ccc2c(OC)c3ccoc3nc2c1OC
    100	101	-2	-337
- NS(=O)(=O)C1CCC(F)CC1 (stereo not drawn)
    98	103	-4	14
- COc1ccc(-c2cc(=O)c3cc(OC(=O)Cc4ccccc4)ccc3o2)cc1
    104	104	-27	75
- O=S(=O)(Cc1ccc(Cl)cc1)c1ccc(C(F)(F)F)cn1
    102	106	-13	-3
- CC1=CC(=C2C(=O)c3ccccc3C2=O)C=C(C)N1CC(C)C
    101	100	-154	18
- Cc1onc(-c2c(Cl)cccc2Cl)c1NC(=O)NC(C)C
    101	98	8	-1
- O=C(O)/C=C/c1ccc2noc(-c3ccccc3)c2c1
    100	94	5	6
- COc1cc(CNc2nn[nH]n2)ccc1OCC(N)=O
    101	100	-3	-9
- CCOC(=O)c1cc(C)n(-c2ccc(C)c(C)c2)c1C
    103	100	-12	-12
- CCC(Sc1nnc2c3ccccc3n(C)c2n1)C(=O)Nc1ccc(S(N)(=O)=O)cc1 (stereo not drawn)
    96	94	-20	x
- CCOC(=O)CCN1C(=O)c2ccccc2C1=O
    107	107	1	-1
- CCCNC(=O)c1ccc2c(c1)N(CC)CCS2
    103	107	13	-50
- COc1ccc(CC(=O)c2cc(OC)c(OC)cc2CC(=O)O)cc1OC
    102	104	-10	-6
- COc1cc(C(=O)/C=C/Nc2ccccc2C(N)=O)cc(OC)c1OC
    100	100	-210	62
- CCc1ccc(N=Nc2sc3nc4c(c(=O)n(C)c(=O)n4C)n3c2O)cc1
    94	97	-7	25
- O=C(c1ccc(F)cc1)c1cccnc1
    100	104	-21	-15
- COc1ccc2c(Sc3ccccc3)c(C(=O)NCCN3CCN(C)CC3)[nH]c2c1
    105	101	-17	-16
- COC(=O)c1csc(S(=O)(=O)N=S(C)(=O)c2ccccc2)c1OC (stereo not drawn)
    102	103	-5	-12
- CC1=C(c2ccccc2)S(=O)(=O)NC1=NCc1ccccc1
    101	103	-13	8
- CO/N=C(/C(=O)NC1C(=O)N2C(C(=O)O)=C(COC(N)=O)CSC12)c1ccco1 (stereo not drawn)
    99	100	1	-12
- COC(=O)C1COc2ccccc2O1 (stereo not drawn)
    104	107	x	-10
- O=C(CC1C(=O)N(c2ccccc2)C(=S)N1CCc1ccc(F)cc1)Nc1ccc(F)cc1 (stereo not drawn)
    101	99	-24	-6

Full records, looked up by structure.
`COC(=O)c1csc(S(=O)(=O)N=S(C)(=O)c2ccccc2)c1OC` (stereo not drawn) is entered as PV pol inh = 102; PV pol inh intensity = 103; Mtb MenB inh = -5; Mtb MbtI inh = -12
`O=C(c1ccc(F)cc1)c1cccnc1` is entered as PV pol inh = 100; PV pol inh intensity = 104; Mtb MenB inh = -21; Mtb MbtI inh = -15
`O=C(CC1C(=O)N(c2ccccc2)C(=S)N1CCc1ccc(F)cc1)Nc1ccc(F)cc1` (stereo not drawn) is entered as PV pol inh = 101; PV pol inh intensity = 99; Mtb MenB inh = -24; Mtb MbtI inh = -6

Next compounds.
Order of results – PV pol inh	PV pol inh intensity	Mtb MenB inh	Mtb MbtI inh
- CCCCN1CC(O)=C(c2nc(-c3ccc(Cl)cc3)cs2)C1=N
    96	102	-8	8
- CC(Sc1nnc(N)s1)C(=O)Nc1cccc2ccccc12 (stereo not drawn)
    103	103	4	16
- Cc1ccc(CCNS(=O)(=O)c2cc3c(cc2Cl)NC(=O)CO3)cc1
    101	101	-15	4
- CSCc1c(C(=O)NCc2ccc3c(c2)OCO3)oc2ccccc12
    102	105	-20	-2
- CC(C(=O)N1CCCCC1)n1c2ccccc2c2cnn(C)c(=O)c21 (stereo not drawn)
    104	100	-3	-49
- COc1ccc(C(N)=NC#N)cc1
    101	102	x	5
- Cc1cc(=O)[nH]c(SCC(=O)NC(C)C2CC3CCC2C3)c1C#N (stereo not drawn)
    101	117	-7	0
- NC(=O)c1ccc(N(S(=O)(=O)C(F)(F)F)S(=O)(=O)C(F)(F)F)cc1
    105	111	6	-13
- COc1cccc(CN(C)CN2C(=O)NC3(CC(C)(C)NC(C)(C)C3)C2=O)c1OC
    102	100	-13	6
- CC(C(=O)Nc1cccc(F)c1)C1Sc2ccccc2NC1=O (stereo not drawn)
    103	102	-23	-13
- CCOc1ccccc1OC(C)C(=O)NC(C)(C#N)C(C)C (stereo not drawn)
    104	101	2	-3
- COc1ccc(/C=N/c2nnc(-c3ccccc3)c(-c3ccccc3)n2)c(C(=O)O)c1OC
    107	104	0	x
- O=C1OCC(CO)N1c1ccccc1 (stereo not drawn)
    90*	81*	-43	x
- NC(=O)/C(=C\c1ccco1)NC(=O)c1ccc(Br)cc1
    103	107	-22	16
- CCc1ccc(NC(=S)NCC(C)(C)N2CCOCC2)cc1
    108	109	-30	5
- O=c1oc2cc(OCc3ccc(F)cc3F)ccc2cc1-c1ccccn1
    103	106	x	i
- CC(C)NS(=O)(=O)c1ccc(CN2C(=O)c3cccnc3C2=O)s1
    102	104	-15	-9
- CN(CC(=O)NCc1ccccc1)S(=O)(=O)c1ccc(C(=O)N2CCOCC2)s1
    101	102	-6	-8
- CN(C)C(C(=O)NC1CCCC1)c1ccc(Cl)cc1 (stereo not drawn)
    100	102	-31	-3
- Cc1cccc(N2Cc3cccc(C(=O)O)c3C2=O)c1
    102	102	5	5

Following part:
Structure | PV pol inh | PV pol inh intensity | Mtb MenB inh | Mtb MbtI inh
C=CCN1C(=O)/C(=C/c2c(NCc3ccco3)nc3ccccn3c2=O)SC1=S | 73 | 198 | -24 | 43
COc1cc2nc(CN3CCC(C)CC3)[nH]c(=O)c2cc1OC | 94 | 93 | 0 | -1
O=C(CSc1ccc(Cl)cc1)Nc1ccccc1 | 101 | 101 | -27 | -4
CCN(CC)S(=O)(=O)c1cc(-c2nnc(-c3ccc(C)cc3)o2)ccc1C | 103 | 103 | 6 | x
Cc1ccc(S(=O)(=O)n2nc(C)cc2C)cc1 | 104 | 99 | 7 | 5
CCn1c(=O)/c(=C\c2ccc(Cl)cc2)s/c1=C(/C#N)C(N)=O | 106 | 113 | -6 | 21
COC(=O)C1=C(C)NC(C)=C(C(=O)OC)C1c1ccccc1OCc1c(C)no[n+]1[O-] | 101 | 101 | -23 | -97
CCOC(=O)CC(N)c1cccc(O)c1 (stereo not drawn) | 102 | 96 | -21 | x
C/C(=N/OC(=O)CSc1nc(-c2ccco2)cc(C(F)(F)F)n1)c1ccccc1 | 102 | 102 | -22 | 5
O=C1CSC2(CCCC2)N1 | 102 | 103 | -12 | 1
Cc1cc(C)c2cc(C3C(C#N)=C(N)OC4=C3C(=O)CC(C)(C)C4)c(=O)[nH]c2c1 (stereo not drawn) | 100 | 102 | 24 | 24
CCN(CC)C(=O)Cc1nc(-c2ccc(OC)cc2)no1 | 102 | 106 | -6 | -7
NC(=O)CSc1nc2sc3c(c2c(=O)n1C1CCCC1)CCCC3 | 100 | 104 | -32 | -10
NC(=O)C1CCCNC1 (stereo not drawn) | 100 | 97 | -12 | -5
COc1ccc(Cl)cc1NC(=O)CN(C)C(=O)c1cccnc1SCc1c(C)noc1C | 102 | 103 | -17 | 36
COc1cc2c(C)nc3onc(-c4ccccc4)c3c2cc1OC | 103 | 100 | -20 | -12
COc1cccc(/C(O)=C/c2nc3ccc(C(F)(F)F)cc3[nH]c2=O)c1 | 107 | 112 | -9 | -4
Cc1[nH]c2cc3c(C(F)(F)F)cc(=O)[nH]c3cc2c1C | 141 | 175 | -35 | x
Cc1n[nH]c(C)c1NC(=O)c1cc2ccccc2oc1=O | 104 | 104 | -56 | -24
O=C(CCC(=O)c1cccs1)NC1=NCCS1 | 104 | 106 | -27 | -3
CC(Sc1nc(N)cc(N)n1)C(=O)c1ccc(Br)cc1 (stereo not drawn) | 107 | 103 | 11 | 23
Cc1c(C#N)c2nc3ccccc3n2c(=O)/c1=C\Nc1cccc(NC(=O)c2ccccc2)c1 | 49 | 173 | -16 | 11
COC(=O)c1ccc(CSc2nnc(SCC(=O)Nc3ccc4c(c3)OC3(CCCCC3)O4)s2)o1 | 106 | 107 | -80 | 15
C=CCc1cc(OC)ccc1OCCCSc1ncccn1 | 101 | 104 | -27 | -20
COc1ccc(OCC(=O)N2N=C(c3ccc(Cl)cc3)CC2c2ccco2)cc1 (stereo not drawn) | 103 | 106 | -25 | 5
CCCNC(=O)c1cccc(NC(=O)N2CCSc3ncccc32)c1 | 102 | 103 | -2 | 3
CN1/C(=C\C=C2\C(=O)Oc3ccccc3C2=O)C(C)(C)c2ccccc21 | 69 | 192 | -34 | -2
Cc1ccc(S(=O)(=O)NC(=O)c2cc(/C=N/NCCC#N)n(C)c2)cc1 | 105 | 104 | -12 | 1
O=C(Nc1ccc2oc(-c3ccccc3)nc2c1)c1ccc(Br)cc1 | 98 | 102 | -31 | 4
COC(=O)CN1C(C)=Nc2ccc(Br)cc2C1c1ccccc1 (stereo not drawn) | 107 | 111 | -3 | x
Cc1ccc2oc(=O)c3cnn(CC(=O)NC4CCC(C)CC4)c3c2c1 (stereo not drawn) | 101 | 104 | 5 | -5
CC(=O)N1CCN(C(=O)C2CCN(S(=O)(=O)c3ccccc3C(F)(F)F)CC2)CC1 | 101 | 98 | -5 | 1
O=C(Nc1ccccc1C(=O)NCc1ccco1)c1ccc(Cl)cc1 | 102 | 102 | -27 | -13
CCSc1nnc(NC(=O)COc2ccccc2)s1 | 99 | 98 | -8 | 11
COc1cn(-c2ccccc2)nc1C(=O)OCc1ccc(C#N)cc1 | 102 | 98 | 0 | 0
c1ccc2sc(CCc3nc4ccccc4s3)nc2c1 | 109 | 112 | -18 | x
CCc1ccc(NC(=O)CSc2nncn3c2cc2occc23)cc1 | 102 | 105 | -6 | 10
COc1ccc2oc(=O)cc(CN3CCN(c4ncccn4)CC3)c2c1 | 103 | 104 | -17 | -6
Cc1cccc(N2CCN(CCCNc3nnc4c5ccccc5n(C)c4n3)CC2C)c1 (stereo not drawn) | 100 | 102 | 5 | -8
O=C(c1cccc(Cl)c1)N(Cc1ccccc1)Cc1ccccc1 | 106 | 111 | 5 | x
Cc1nc(C)c(-c2ccnc(C34CC5CC(CC(C5)C3)C4)n2)o1 | 104 | 105 | -9 | -5
CC1CCCCN1C(=O)CSc1nnc2c3ccccc3n(CC(=O)O)c2n1 (stereo not drawn) | 102 | 104 | -43 | 0
Cc1[nH]nc2nc3c(c(-c4cc(C)n(C5CC5)c4C)c12)C(=O)CC(C)(C)C3 | 109 | 102 | -9 | 18
